WNV NS2B-NS3 inh – inhibitors of WNV NS2B-NS3 protease, primary screen, biochemical, fluorogenic substrate; Genome polyprotein (West Nile virus), P06935; fluorogenic substrate Ex360/Em465; active compounds read low; z-score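 (tested at a level between 10 and 100 µM)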; 65,000 compounds, 0.18% hits; AID 577, 2007;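 active = z-score at -3 or under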;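 also: score is relative to mean and spread of the compound wells of a plate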
Target sequence (P06935 1371-1501 limits assumed): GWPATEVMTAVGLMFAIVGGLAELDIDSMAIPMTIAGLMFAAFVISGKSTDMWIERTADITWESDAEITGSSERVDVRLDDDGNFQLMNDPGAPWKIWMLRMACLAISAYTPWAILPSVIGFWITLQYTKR
Target sequence (P06935 1502-1679 limits assumed): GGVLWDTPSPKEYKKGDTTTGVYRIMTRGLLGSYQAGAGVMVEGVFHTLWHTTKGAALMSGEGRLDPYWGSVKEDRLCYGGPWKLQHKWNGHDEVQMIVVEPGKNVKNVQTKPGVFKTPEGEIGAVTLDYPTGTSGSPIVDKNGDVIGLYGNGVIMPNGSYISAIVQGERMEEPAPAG
MT1-MMP reporter – inhibitors of MT1-MMP promoter transcription, cell-based, luciferase reporter, luminescence (AID 618); MT1-MMP promoter luciferase reporter cells, luminescence; calls from a first round at 10 µM; hits with a dose series show EC50 in µM; 87,000 compounds, 0.62% hits;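 active = over half of the reporter light lost at 10 µM or EC50 under 50 µM; inactive = the rest and hits that failed the dose series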;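 also: actives suppress MT1-MMP promoter-driven transcription so potencies describe inhibitors; HT1080 fibrosarcoma cells; overnight exposure; toxic or luciferase-blocking compounds were not removed from the actives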
Hsc70 ATP site – Hsc70 inhibitors, probe displacement, primary screen, biochemical, fluorescence polarization (AID 568). Heat shock cognate 71 kDa protein (Homo sapiens). Hsc70 fluorescence polarization, probe displacement; higher % means a stronger effect; strong numbers were not always called active. displacement, % at 20 µM, or IC50 in µM where a hit was titrated. 83,000 tested, under 10 active;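 active = displacement above 50% without optical interference and an IC50 on retest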;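 also: ATPase domain with a fluorescein-tagged ATP probe; 0% = vehicle and 100% = excess ADP; read after one hour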
* hit, by the source's call; i = inactive; x = not tested or not shown; + = active, no number. These rows are one share of the data; rates above refer to the full screens.

SMILES | WNV NS2B-NS3 inh | MT1-MMP reporter | Hsc70 ATP site
COc1ccc(OC)c(S(=O)(=O)N(C)CC(=O)N2CCN(c3ccccc3)CC2)c1 | 1.15 | i | 6.1%
CCOC(=O)c1c(C)oc2c(F)c(F)c(F)c(F)c2c1=O | -0.52 | + | 4.8%
CS(=O)(=O)N1CCC(C(=O)Nc2ccc3c(c2)OCO3)CC1 | x | i | 1.9%
CCOc1ccccc1NC(=O)CSc1nnc(-c2ccco2)n1Cc1ccco1 | 0.82 | i | 2.3%
O=C(CCCSc1nc2ccccc2s1)Nc1nccs1 | 0.11 | i | -15.7%
Cc1cccc(NC(=S)NNC(=O)CCn2nc(C)c([N+](=O)[O-])c2C)c1 | x | i | 3.4%
Cc1nnc(NC(=O)NC(C)N2C(=O)C3C4C=CC(C4)C3C2=O)s1 (stereo not given) | -1.35 | i | 0.7%
CC(C)c1ccc(Oc2cccc(C(=O)/C(C#N)=C/N(C)C)c2)cc1 | x | i | 5.1%
CCOC(=O)C1CCN(C(=O)Nc2ccccc2Cl)CC1 | -1.11 | i | 1.4%
Cc1nc2ccccc2c(=O)n1NS(C)(=O)=O | -0.84 | i | -2.3%
O=C(COc1ccc(Cl)cc1)Nc1ncccn1 | 0.11 | i | -0.1%
CCOC(=O)/C(C#N)=C1/SC(C)C(=O)N1c1ccc(Br)cc1 (stereo not given) | x | i | -4.4%
CCCCc1c(C(=O)O)cc(OC)cc1C(=O)O | 0.33 | i | 1.1%
CC(=O)Nc1ccc(OCC(=O)c2ccc(C)cc2C)cc1 | x | i | -1.2%
O=C(CN1C(=O)NC2(CCCCC2)C1=O)NCCC1=CCCCC1 | 0.85 | i | 2.3%
Cc1cc(C(F)(F)F)nn1CCCNC(=O)c1cnccn1 | -1.63 | i | -0.1%
CCOC(=O)Cc1c(C)nc(-c2ccccc2)[nH]c1=O | -0.35 | i | -9.3%
O=C(NC1CC2CCCC(C1)N2Cc1cccs1)N1CCOCC1 (stereo not given) | 0.58 | i | 3.4%
O=C(Nc1cccc2cccnc12)c1cccc(N2C(=O)CCC2=O)c1 | -0.25 | i | -2.1%
O=S(=O)(c1cc(F)cc(F)c1)N1CCN(c2ncccn2)CC1 | 0.3 | i | -3.2%
CCOC(=O)CNC(=O)Nc1cccc(Cl)c1C | 0.46 | i | -0.7%
CC(=O)c1cc2c(cc1NS(=O)(=O)c1ccc(C)cc1)OCO2 | x | i | -1.7%
O=C(CN1C2CCC1CC(NC(=O)Nc1ccccc1)C2)NCc1ccco1 (stereo not given) | -1.43 | i | 2.3%
CCOC(=O)c1sc(N)c(C(=O)OCC)c1COC(=O)C1CC(=O)N(Cc2ccco2)C1 (stereo not given) | 0.59 | i | -5.3%
c1ccc(CC2CCN(C(c3cccs3)c3nnnn3C3CCCC3)CC2)cc1 (stereo not given) | 0.09 | i | -8.0%
SMILES | WNV NS2B-NS3 inh | MT1-MMP reporter | Hsc70 ATP site
CCCC1CCc2c(sc(N)c2C(N)=O)C1 (stereo not given) | x | i | -1.6%
COc1ccc(C(=O)NC2CCSC2=O)cc1 (stereo not given) | x | i | -6.1%
CCCCCCN1C2=NCCN2c2ccccc21 | x | i | 0.4%
Cc1cc(C)c2nc(N3CCCC(C(=O)NCCN4CCOCC4)C3)sc2c1 (stereo not given) | -0.13 | i | 2.7%
O=C(O)CSc1nc2ccccc2o1 | -1.37 | i | -0.6%
O=C(Cn1nnc(-c2ccccc2Cl)n1)NCc1ccc2c(c1)OCO2 | x | i | 0.2%
Cc1cc(=O)n2nc(N3CCC(C(=O)N4CCN(C)CC4)CC3)sc2n1 | -0.9 | i | -11.1%
COc1ccc(N(CC(=O)NCc2ccccc2OC)S(=O)(=O)c2c(C)nn(C)c2C)cc1 | 0.29 | i | 1.8%
Cc1cc(C)n(-c2nc3nonc3nc2-n2nc(C)cc2C)n1 | -0.8 | i | -6.9%
Cn1c(C(=O)OC(C(=O)NC2CCCC2)c2cccnc2)cc2sccc21 (stereo not given) | -0.45 | i | -2.6%
COCCNC(=O)CC(c1ccccc1)c1ccccc1 | x | i | -5.4%
CCS(=O)(=O)N1CCCC(C(=O)NCCc2ccccc2)C1 (stereo not given) | x | i | 2.5%
COc1ccc(S(=O)(=O)Nc2ccccc2C(=O)NC(C)C)cc1OC | -0.27 | i | 3.3%
COc1ccc(N2CCN(c3ccc(NC(=O)C4CCCCC4)cc3C#N)CC2)cc1 | 0.59 | i | -13.2%
CCN(C(=O)c1cc2cc(OC)ccc2oc1=O)c1ccccc1 | -0.12 | i | -4.0%
CCOc1ccccc1C(=O)NC1CC2CCCC(C1)N2Cc1ccccc1 (stereo not given) | x | i | 1.5%
CCOC(=O)c1cnc(Nc2nc3ccccc3o2)nc1CSc1nnc(C)s1 | -1.07 | i | -1.6%
CC(NC(=O)c1ccccc1)c1nc2ccccc2n1Cc1ccccc1F (stereo not given) | x | i | -0.1%
CC12CN3CC(C)(CN(C1)C3c1ccc(Br)cc1O)C2 (stereo not given) | -0.27 | i | 4.2%
O=P(COCCOCP(=O)(c1ccccc1)c1ccccc1)(c1ccccc1)c1ccccc1 | x | i | -0.2%
O=C(O)C1C2C=CC(C2)C1C(=O)Nc1nccs1 (stereo not given) | x | i | -4.3%
Cc1cc(C)nc(SCCC(=O)N2CCOCC2)n1 | -0.04 | i | 0.4%
CCCCCOc1ccc(N2C(=O)CC(N(O)c3ccccc3)C2=O)cc1 (stereo not given) | 1.04 | i | 0.6%
CC(C)c1ccc(-c2nc(N3CCOCC3)[nH]c(=O)c2C#N)cc1 | 0.07 | i | 7.5%
CCCN1C(=O)/C(=C/c2ccc(C)s2)NC1=S | x | i | 1.7%
SMILES | WNV NS2B-NS3 inh | MT1-MMP reporter | Hsc70 ATP site
CN(C)Cc1c(O)c(Cl)cc2c3c(c(=O)oc12)CCCC3 | x | i | 1.6%
CC(C)N(Cc1nc(-c2ccccc2)no1)C(=O)COc1ccccc1 | -0.98 | i | 3.7%
Cn1cccc1Cc1nnc(SCC(=O)Nc2ccc3c(c2)OCO3)n1-c1ccc(F)cc1 | -0.18 | i | 3.9%
Clc1ccc(OCCN2CCCCC2)c(Cl)c1 | x | i | -3.7%
COc1ccc(N(CC(=O)N2CCCCC2)S(=O)(=O)c2ccccc2)c(OC)c1 | -0.07 | i | 6.9%
O=C(OCC#CCSc1nnc(-c2ccc(Br)cc2)o1)c1ccco1 | -0.47 | i | -2.3%
CCS(=O)(=O)Nc1c(C(=O)O)[nH]c2ccccc12 | 0.65 | i | -2.0%
COC(=O)C1=C(N)Oc2cc(C)[nH]c(=O)c2C1c1ccncc1 (stereo not given) | 0.57 | i | -6.1%
CCOC(=O)c1ccccc1NC(=O)CC(C)CC(=O)O (stereo not given) | -0.18 | i | -1.6%
CCc1ccc2nc(NC(=O)c3ccc4c(=O)[nH]c(CN5CCOCC5)nc4c3)sc2c1 | -0.2 | i | 1.0%
COc1ccc(-c2nc(CCNC(=O)c3ccco3)cs2)cc1OC | 0.61 | i | 3.5%
Cc1ccc(CNCc2cccnc2)cc1 | x | i | 1.6%
Cc1ccc(S(=O)(=O)Cn2nnnc2C(c2ccc(F)cc2)N2CCCCC2)cc1 (stereo not given) | -1.35 | i | -4.0%
Cc1ccc(NC(=O)c2cc3c(s2)CCC3)cc1S(=O)(=O)N1CCOCC1 | x | i | 1.2%
O=C1C(Cl)=C(NCCCN2CCOCC2)C(=O)N1CCc1ccccc1 | -1.91 | i | 0.8%
CCN(CC)c1ccc(/C=N/n2c(C)cc(C)cc2=O)cc1 | 0.66 | i | 2.3%
CCCCOC(=O)N1CCOCCOCCN(C(=O)OCCCC)CCOCCOCC1 | -1.24 | i | -1.1%
Cc1ccc(S(=O)(=O)Nc2ccc(N3CCOCC3)cc2)cc1 | x | i | 7.4%
c1ccc(-c2cnnc(SCc3cn4cccnc4n3)n2)cc1 | -0.82 | i | -3.1%
c1cncc(CSc2nnc(-c3cccnc3)n2Cc2ccco2)c1 | 0.04 | i | 1.3%
COC(=O)C1=C(CN2CCc3ccccc32)NC(=O)NC1c1cc(C)ccc1C (stereo not given) | 0.16 | i | 2.8%
CC(NC(=O)c1cccs1)C(c1cccs1)N1CCN(Cc2ccccc2)CC1 (stereo not given) | -1.22 | i | -0.7%
C=CCn1c(SCC(=O)NCc2ccco2)nc2sc3c(c2c1=O)CCCCC3 | -0.14 | i | 1.6%
COC(=O)C1=C(C)N(C)C(=O)NC1c1cc(Cl)cc(Cl)c1OC (stereo not given) | 0.72 | i | 4.1%
COc1ccccc1Nc1ncnc2c1cnn2-c1cccc(C)c1 | -0.38 | i | 8.3%

Some of the entries above, reformatted:
Second line of a record: WNV NS2B-NS3 inh | MT1-MMP reporter | Hsc70 ATP site
- O=C1C(Cl)=C(NCCCN2CCOCC2)C(=O)N1CCc1ccccc1
→ -1.91 | i | 0.8%
- C=CCn1c(SCC(=O)NCc2ccco2)nc2sc3c(c2c1=O)CCCCC3
→ -0.14 | i | 1.6%

Returning to the listing, starting 2 compounds before the break.
SMILES | WNV NS2B-NS3 inh | MT1-MMP reporter | Hsc70 ATP site
COC(=O)C1=C(C)N(C)C(=O)NC1c1cc(Cl)cc(Cl)c1OC (stereo not given) | 0.72 | i | 4.1%
COc1ccccc1Nc1ncnc2c1cnn2-c1cccc(C)c1 | -0.38 | i | 8.3%
COc1ccc(N2CCN(C(=O)CCc3ccc(S(=O)(=O)NCC(C)C)cc3)CC2)cc1 | x | i | 0.5%
CCc1nnc(NC(=O)CSc2nnc(Cc3ccc(OC)cc3)o2)s1 | -1 | i | -2.1%
C[C@]12CC[C@@H]3c4ccc(O)cc4C(=O)C[C@H]3[C@@H]1CC[C@@H]2O | 0.21 | i | -1.9%
Cn1c(SCC(=O)N2CCOCC2)nnc1-c1cccc(NC(=O)c2ccccc2)c1 | 1.46 | i | -7.2%
CC(C)(C)C(=O)Nc1cccc(-c2nc3ccccc3c(=O)o2)c1 | x | i | 2.6%
NNc1nc(NCc2ccccc2)nc(N2CCOCC2)n1 | x | i | 2.6%
O=C(/C=C/N1CCOCC1)c1coc2ccccc12 | -1.92 | i | -3.8%
CCOc1ccc(S(=O)(=O)Nc2cc(C)ccn2)c2ccccc12 | x | i | 2.4%
CCc1c(C)sc(NC(=O)c2cc(C)on2)c1C#N | 1.19 | i | -4.7%
CC(C)COC(=O)Cc1c(O)c2ccccc2[nH]c1=O | 0.32 | i | -14.4%
Cc1ccc(NC(=O)c2ccco2)cc1NC(=O)CSc1nnc(-c2cccs2)n1C | -0.92 | i | 1.2%
c1ccc(-c2cc3c(-n4cccc4)ncnc3o2)cc1 | -0.37 | i | -0.2%
O=c1c2ccccc2c(C=Nc2ccc(Cl)cn2)c(O)n1-c1cc(Cl)ccc1N1CCOCC1 | -0.16 | i | -1.9%
COC(=O)C1=C(C)Nc2ncnn2C1c1cccnc1 (stereo not given) | x | i | -0.3%
CCC(=O)Nc1cc(C(=O)NCC2CCCN2CC)c(OC)cc1N(C)C (stereo not given) | -0.57 | i | -0.9%
Cc1ccc(C2(C)NC(=O)N(CC(=O)Nc3cc(C)on3)C2=O)cc1 (stereo not given) | x | i | -1.3%
O=C(Nc1ccccc1Cl)N1CCN(c2ccc3nnc(-c4ccc(F)cc4)n3n2)CC1 | -0.18 | i | -2.9%
CCN(CC)S(=O)(=O)c1ccc(C(=O)N2CCN=C2SC)cc1 | 0.33 | i | 6.9%
CC(NC(=O)c1cccs1)c1ccc2c(c1)OCO2 (stereo not given) | 3.22 | i | 1.1%
Cc1csc(NC(=O)C2CCCN(S(=O)(=O)c3cnc[nH]3)C2)n1 (stereo not given) | 0.51 | i | -4.8%
CC(C)C(NC(=O)CNC(=O)OC(C)(C)C)C(=O)NCc1ccccc1 (stereo not given) | -0.25 | i | -1.9%
COc1ccc(C2/C(=C(\O)c3ccc4c(c3)OCCO4)C(=O)C(=O)N2Cc2ccco2)c(OC)c1 (stereo not given) | x | i | -0.6%
Cc1ccc(-c2ccc(=O)n(CC(=O)N3CCN(c4cccc(C)c4)C(C)C3)n2)cc1 (stereo not given) | -1.33 | i | -1.0%
Cc1ccc(-n2nc(C)c3cc(C(=O)O)sc32)cc1 | -0.49 | i | -3.8%
Cc1noc(/C=C/N(C)C)c1S(=O)(=O)N1CCCC(C(=O)NC(C)c2ccccc2)C1 (stereo not given) | -1.04 | i | -3.3%
C=CCc1cc(/C=N/n2cnnc2)cc(OCC)c1O | 0.06 | i | 3.8%
O=C(O)CC(C(=O)O)c1cn(Cc2ccccc2)c2ccccc12 (stereo not given) | 0.17 | i | 9.0%
O=C(CN1C(=O)C2CC=CCC2C1=O)NCc1ccc2c(c1)OCO2 (stereo not given) | x | i | 0.6%
COc1ccc(-n2nnnc2SCC(N)=O)cc1 | -0.67 | i | -0.5%
CCn1c(-c2nn(C)c(C)c2Cl)n[nH]c1=S | x | i | 10.7%

Laid out differently: entries from further up.
> Cn1cccc1Cc1nnc(SCC(=O)Nc2ccc3c(c2)OCO3)n1-c1ccc(F)cc1
  WNV NS2B-NS3 inh: -0.18; MT1-MMP reporter: i; Hsc70 ATP site: 3.9%

> Clc1ccc(OCCN2CCCCC2)c(Cl)c1
  WNV NS2B-NS3 inh: x; MT1-MMP reporter: i; Hsc70 ATP site: -3.7%

> COc1ccc(N(CC(=O)N2CCCCC2)S(=O)(=O)c2ccccc2)c(OC)c1
  WNV NS2B-NS3 inh: -0.07; MT1-MMP reporter: i; Hsc70 ATP site: 6.9%

> O=C(OCC#CCSc1nnc(-c2ccc(Br)cc2)o1)c1ccco1
  WNV NS2B-NS3 inh: -0.47; MT1-MMP reporter: i; Hsc70 ATP site: -2.3%
